HPGD block: blocks human HPGD enzyme activity; P15428; purified HPGD, NADH fluorescence kinetic, PGE2 substrate; Potency, µM, for the others: at the top dose activity change, negative = inhibition, usual class: inhibitors; 150,000 tested, 4.3% active; active = well fitted inhibition curve with a large enough effect (not every such curve was filed as active); inconclusive = small, poorly fitted or top-dose-only effect, or another doubt; inactive = no such curve, though single readings can be large or run the other way;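 also: top concentration of the series not given in the record; plate controls included wells without enzyme; inactives centre near -10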
Target sequence (P15428 whole entry, looked up): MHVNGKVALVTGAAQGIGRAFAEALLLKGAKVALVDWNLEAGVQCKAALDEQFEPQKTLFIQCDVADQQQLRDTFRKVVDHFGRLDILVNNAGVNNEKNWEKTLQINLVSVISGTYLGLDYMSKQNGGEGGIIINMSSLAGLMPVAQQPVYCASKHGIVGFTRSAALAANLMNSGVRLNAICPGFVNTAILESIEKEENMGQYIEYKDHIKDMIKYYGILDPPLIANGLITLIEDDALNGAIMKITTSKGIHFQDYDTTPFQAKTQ
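NADH formation kinetics: reaction with 30 uM PGE2 and 1 mM NAD+ (final), 20 nM enzyme, Tris-HCl pH 8 with Tween 20, after 15 min compound preincubation at room temperature. Fluorescence change, last versus first of five reads.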
Starred values were filed as active, the others as inactive; ? = inconclusive. % is scaled to controls: 0 for no effect and ±100 for the full control effect; potency is read from the fitted curve at half-maximal effect. The list is partial; rates above refer to the full screens.

SMILES	HPGD block
C=CC(=O)Nc1ccc(Br)cc1	-8%
COCCn1nnnc1C(c1ccc(OC)cc1)N1CCN(c2ccccc2F)CC1 (configuration not stated)	-5%
COc1ccc(-c2cc(C(=O)N/N=C\c3cc(OC)c(OC)c(OC)c3)[nH]n2)cc1	?
O=C(O)CCc1nc2cccnc2n1Cc1ccccc1	4%
CCCNC(=O)CSC1=N/C(=C/c2ccc(F)cc2)C(=O)N1CC	-7%
CC(C)CN1C(=O)c2ccc(C(=O)NCc3ccc4c(c3)OCO4)cc2C1=O	-6%
CC1CCN(C(=O)CSc2nnc(Cc3ccccc3)o2)CC1	-9%
CCOC(=O)c1cc(-c2ccccc2)n(CC(=O)Nc2ccc(OCC)cc2)c1C	-6%
Cc1ccc(Cl)cc1N(Cc1ccc(C(=O)NCc2cccnc2)cc1)S(=O)(=O)c1ccccc1	-26%
Cc1ccc(Cn2nnc3c(=O)n(Cc4cc(C)ccc4C)cnc32)cc1	4µM*
Cc1cccc(C(=O)NCCN2CCN(c3ccccc3)CC2)c1	-11%
O=C(Oc1ccccc1)n1c(=S)oc2ccccc21	-12%
O=C(CSc1nc2ccccc2o1)NCc1ccco1	?
O=C1OC(c2ccc(Cl)cc2)=N/C1=C\c1cccnc1	-6%
CCCCC1CCC(C(=O)NCc2ccc3c(c2)OCO3)CC1 (configuration not stated)	-7%
Cc1c(/C=N/NC(=O)C(NC(=O)c2ccc3c(c2)OCO3)C(C)C)c2ccccc2n1C (configuration not stated)	-8%
COc1cccc(CNC(=O)Nc2cccs2)c1	-30%
COc1ccccc1NC(=O)CSc1nnc(C)n1CC1CCCO1 (configuration not stated)	-11%
CN(CCO)c1c2c(nc3cc(-c4cccc(F)c4)nn13)CCCC2	?
O=C(CCn1c2c(c3ccccc31)CCCC2)NNC(=O)c1ccccc1[N+](=O)[O-]	-13%
CCc1cccc(CC)c1NC(=O)c1cccc(N)c1	-16%
COc1cc(C(=O)O/N=C2\C=CC(=O)C=C2C)cc(OC)c1OC	-1%
COCCCNc1nc(-c2ccncc2)nc2ccccc12	-18%
COC(=O)CNC(=O)c1c(-c2c(Cl)cccc2Cl)noc1C	-5%
COC(=O)c1ccc(C(NC(=O)OCc2ccccc2)/C(F)=C/[C@@H](C)C(=O)NCCN2CCOCC2)cc1 (some centres not stated)	-10%
COc1oc(-c2ccccc2C)nc1C(F)(F)F	-18%
CCN1C(=O)C(CC(=O)Nc2cc(C)ccc2C)SC1=Nc1ccc(S(N)(=O)=O)cc1 (configuration not stated)	-8%
COC(=O)c1ccc(C(/C=C/[C@@H](C)C(=O)NCCc2c[nH]c3ccccc23)NC(=O)OCc2ccccc2)cc1 (some centres not stated)	-10%
N#C[C@H](C(=O)O)C(c1c(Cl)cccc1Cl)[C@H](C#N)C(=O)O	4%
NC(=O)c1oc2ccccc2c1NC(=O)C1CCCCC1	-26%
COC(=O)CCSCc1cn2cc(Cl)ccc2n1	-2%
Clc1cccc(/C=N\Nc2nccs2)c1	-27%
COc1ccc(C(=O)Nc2cccc(-c3nc4ncccc4o3)c2C)cc1OC	1%
O=C(C1COc2ccccc2O1)N1CCN(c2ccccc2)CC1 (configuration not stated)	-9%
COc1ccc(NC(=O)N2CC3(CCN(C(=O)c4cnccn4)CC3)C2)cc1	-7%
CC1=C(C(=O)NC2CCCCC2C)C2(CCC(C)CC2)OC1=O (configuration not stated)	-5%
O=C(Nc1nnc(SCc2ccccc2)s1)c1cccc([N+](=O)[O-])c1	-30%
Fc1cccc(Cl)c1/C=N/Nc1c(Cl)cncc1Cl	-6%
CC1CCCN(c2ccc(C(=O)NCc3ccc4c(c3)OCO4)cc2[N+](=O)[O-])C1 (configuration not stated)	?
COc1ccc2cc1Oc1ccc(cc1)C[C@H]1c3cc(c(OC)cc3CCN1C)Oc1c(OC)c(OC)cc3c1[C@H](C2)N(C)CC3	0%
OC1CN=C2C=CC=CN2C1 (configuration not stated)	?
CCOc1ccc(NC(=O)C2CCN(C(=O)NC3CCCCC3)CC2)cc1	-3%
N[C@@H](CSc1nc2ccccn2c1[N+](=O)[O-])C(=O)O	-9%
CSc1ccc(/C=C(/NC(=O)c2ccc(C)cc2)C(=O)Nc2cccc(C)c2)cc1	-22%
CCOC(=O)c1[nH]c2ccc(OC)cc2c1NC(=O)CN1CCSCC1	?
CC(NC(=O)c1cccc2ccccc12)c1ccc2c(c1)CCCC2 (configuration not stated)	-18%
COc1ccc2c(c1)OCC1=C2CCC2(C)C(=O)CC=C12 (configuration not stated)	?
O=C(CSc1ccc(Cl)cc1)Nc1nnc(-c2cccc([N+](=O)[O-])c2)s1	-23%
CCOc1ccccc1NC(=O)NS(=O)(=O)c1ccc(C)cc1	0%
CN1CC=C2C(C#N)=C(N)C(C#N)(C#N)C(Cc3ccccc3)C2C1 (configuration not stated)	?
Cc1ccc2[nH]c(=O)c(COC(=O)c3cccs3)cc2c1	-17%
O=S(=O)(Nc1ccc2c3c(cccc13)CC2)c1ccc(F)cc1	-15%
CNC(=O)c1nnn(Cc2ccccc2)c1NC(C)=O	-2%
COc1ccc(C(=O)CSc2ccc(-c3ccc(C)cc3)nn2)cc1	-15%
CC(CCc1ccccc1)NC(=O)c1cccc([N+](=O)[O-])c1 (configuration not stated)	-17%
CCOC(=O)C1=C(N)c2ccccc2CC1C(C)C (configuration not stated)	-11%
O=C(CN1CCN(C(c2ccccc2)c2ccccc2)CC1)N1CCOCC1	-3%
Cc1noc(C)c1S(=O)(=O)NC1CCN(Cc2ccccc2)CC1	-4%
O=C(CSc1ncnc2ccccc12)NCCCO	-23%
O=C1[C@H]2[C@H]3C=C[C@@H](C4[C@H]3[C@@H]3C(=O)N(CN5CCSCC5)C(=O)[C@H]43)[C@H]2C(=O)N1CN1CCSCC1 (some centres not stated)	-5%

Given with values ahead of the structure: 19 of the compounds above.
HPGD block | smiles
? | CC1CCCN(c2ccc(C(=O)NCc3ccc4c(c3)OCO4)cc2[N+](=O)[O-])C1 (configuration not stated)
0% | COc1ccc2cc1Oc1ccc(cc1)C[C@H]1c3cc(c(OC)cc3CCN1C)Oc1c(OC)c(OC)cc3c1[C@H](C2)N(C)CC3
? | OC1CN=C2C=CC=CN2C1 (configuration not stated)
-3% | CCOc1ccc(NC(=O)C2CCN(C(=O)NC3CCCCC3)CC2)cc1
-9% | N[C@@H](CSc1nc2ccccn2c1[N+](=O)[O-])C(=O)O
-22% | CSc1ccc(/C=C(/NC(=O)c2ccc(C)cc2)C(=O)Nc2cccc(C)c2)cc1
? | CCOC(=O)c1[nH]c2ccc(OC)cc2c1NC(=O)CN1CCSCC1
-18% | CC(NC(=O)c1cccc2ccccc12)c1ccc2c(c1)CCCC2 (configuration not stated)
? | COc1ccc2c(c1)OCC1=C2CCC2(C)C(=O)CC=C12 (configuration not stated)
-23% | O=C(CSc1ccc(Cl)cc1)Nc1nnc(-c2cccc([N+](=O)[O-])c2)s1
0% | CCOc1ccccc1NC(=O)NS(=O)(=O)c1ccc(C)cc1
? | CN1CC=C2C(C#N)=C(N)C(C#N)(C#N)C(Cc3ccccc3)C2C1 (configuration not stated)
-17% | Cc1ccc2[nH]c(=O)c(COC(=O)c3cccs3)cc2c1
-15% | O=S(=O)(Nc1ccc2c3c(cccc13)CC2)c1ccc(F)cc1
-2% | CNC(=O)c1nnn(Cc2ccccc2)c1NC(C)=O
-15% | COc1ccc(C(=O)CSc2ccc(-c3ccc(C)cc3)nn2)cc1
-17% | CC(CCc1ccccc1)NC(=O)c1cccc([N+](=O)[O-])c1 (configuration not stated)
-11% | CCOC(=O)C1=C(N)c2ccccc2CC1C(C)C (configuration not stated)
-3% | O=C(CN1CCN(C(c2ccccc2)c2ccccc2)CC1)N1CCOCC1

(continued)
SMILES	HPGD block
C=C1CCC2[C@](C)(CO)C(O)CC[C@]2(C)C1C/C=C1/C(=O)OCC1O (some centres not stated)	-6%
C/C(=C\C#N)n1nc(C)cc1N	-3%
CCOc1ccc(C2C(C#N)=C(N)SC(N)=C2C#N)cc1OCC	22µM*
Cc1nn(-c2ccccc2)c(C)c1NC(=O)c1ccc(S(=O)(=O)N2CCCC2)cc1	-5%
COc1cc(/C=N\NC(=O)Cn2nnc3ccccc32)cc(OC)c1OC	-13%
O=C(CN1C(=O)NC2(CCOc3ccccc32)C1=O)Nc1ccc2c(c1)OCCO2 (configuration not stated)	-22%
CCc1ccc(OCc2nnc(SCC(=O)NCc3ccco3)o2)cc1	-16%
CCN1CCN(C(=O)c2nn(-c3ccc(OC)cc3)c(=O)c3c2c2ccccc2n3C)CC1	-17%
CC(C)NC(=O)C(Sc1ccccc1)c1ccccc1 (configuration not stated)	-5%
COCCNC(=O)CN1CCC(NC(=O)Nc2ccc(C(F)(F)F)cc2)CC1	-7%
Cc1ccc(S(=O)(=O)NC(C(=O)Oc2ccc3c(C)c(Cl)c(=O)oc3c2)c2ccccc2)cc1 (configuration not stated)	?
Cc1noc(C)c1S(=O)(=O)Nc1ccc(C(=O)N2CCCCC2)cc1	32µM*
OC1CCCN(Cc2ccc3c(c2)Cc2ccccc2-3)C1 (configuration not stated)	-3%
O=C1C(=O)c2c(C(=O)c3ccccc3)coc2-c2ccccc21	22µM*
CCOc1ccc(S(=O)(=O)N2CCCCC2)c2ccccc12	-29%
Cc1ccc(-c2csc3nc[nH]c(=S)c23)cc1C	-13%
CN(C)CCCNC(=S)N1CCn2c(nc3ccccc32)C1	-2%
COc1cccc(-c2csc(N3CCN(C(=S)Nc4ccccc4Cl)CC3)n2)c1	-17%
O=C(CCc1ccccc1)n1nc(-c2ccco2)nc1SCc1ccccc1	8.9µM*
CCOc1ccc(NC(=O)CC2C(=O)N(C)C(=S)N2Cc2ccc3c(c2)OCO3)cc1 (configuration not stated)	-12%
OC(CN1CCOCC1)CN(c1ccccc1)c1ccccc1 (configuration not stated)	-12%
CCOC(=O)c1ccc(NC(=O)CSc2nccn2C)cc1	-25%
COC(=O)CS(=O)(=O)c1nnc([C@H](Cc2ccccc2)NC(=O)OC(C)(C)C)o1	11µM*
NC1=NC2(CCN(Cc3ccccc3)CC2)n2c(nc3ccccc32)N1	-19%
CCOCCCNC(=O)c1cc(Sc2ccc(F)cc2)nc2ccccc12	-17%
CCOc1ccccc1CNC(=O)c1cc2oc3ccccc3c2n1C	?
COc1c2ccoc2cc2oc(C)cc(=O)c12	?
Brc1ccc(-c2csc(N3CCC(c4ccccc4)C3)n2)cc1 (configuration not stated)	?
Nn1c(Cc2ccccc2F)nnc1SCC(=O)N1CC(=O)Nc2ccccc21	-17%
C=CCn1c(SCC(=O)N2CCOCC2)nc(O)cc1=O	-23%
CCc1ccccc1NC(=O)c1ccc(NCCc2ccccc2)c([N+](=O)[O-])c1	-10%
Nc1c(S(=O)(=O)O)cc(Nc2cccc(S(N)(=O)=O)c2)c2c1C(=O)c1ccccc1C2=O	?
CCOC(=O)C1=C(O)CSC1=Nc1ccccc1	-8%
COC(=O)c1c(C(=O)OC)c2cccc3cc(-c4ccccc4)c4ccc1c4n32	-22%
Cc1c(C#N)c(=O)oc2ccc3ccccc3c12	?
Cc1cccc(C)c1NC(=O)CCCSc1nnc(-c2ccc(F)cc2)n1-c1ccccc1	-3%
CCCn1c(SCc2ccccc2)nc2c1c(=O)[nH]c(=O)n2C	?
CCOc1cccc(C(=O)Nc2nc(-c3ccc(S(=O)(=O)N4CCOCC4)cc3)cs2)c1	?
Cc1c(-c2ccccc2)[n+](=O)c(-c2ccco2)c(C)n1[O-]	3%
O=C(NCC(=O)N(Cc1ccco1)C(C(=O)NC1CCCC1)c1cccnc1)c1cccs1 (configuration not stated)	2%
O=[N+]([O-])c1cccc(/C=N/Nc2nnc(-c3ccccc3)c(-c3ccccc3)n2)c1	-4%
COc1ccc(CNC(=O)C(C)NC(=O)c2cc3ccccc3o2)cc1 (configuration not stated)	-11%
Cc1cc(C)c(C)c(N=Nc2nc3ccccc3n2C)c1C	-14%
O=C1c2ccccc2C(=O)N1C/C=C/c1ccccc1	-18%
Cc1noc(NS(=O)(=O)c2ccc(NC(=O)c3cnc4scc(C)n4c3=O)cc2)c1C	-20%
CCCSc1nc(C)c(CC(=O)OCC)c(=O)[nH]1	-18%
Cc1cccc(NC(=S)NCc2ccccn2)c1	-12%
Cc1cc(C)nc(SCCC(=O)Nc2ccccc2C)n1	-13%
CCc1ccc2oc(-c3ccc(N)cc3)nc2c1	?
O=C(CC(Nc1ccccc1Cl)C(=O)OCC(=O)c1cccs1)c1ccccc1 (configuration not stated)	-20%
CC(=O)NC1Sc2ccccc2N=C1c1ccccc1 (configuration not stated)	?
COc1ccc(-n2c(SCCC#N)nnc2-c2cc(Cl)ccc2OC)cc1Cl	20µM*
CCOc1cc(/C=N/O)cc(Br)c1OC	-21%
C=CCn1c(=O)c2c(C)c(C)sc2n2c(Nc3ccc(OC)cc3)nnc12	2%
Clc1ccccc1OCCCCn1ccnc1	-13%
O=C(CSc1nnc(-c2ccncc2)n1-c1ccc(Cl)cc1)NCc1cccs1	-2%
O=C(NC(NC(=S)Nc1ccc(Cl)c(Cl)c1)C(Cl)(Cl)Cl)c1ccco1 (configuration not stated)	-24%
C=CCNC(=O)c1ccc(Sc2ccccc2)c([N+](=O)[O-])c1	-23%
CCCCOc1cccc(C(=O)NNC(=S)NC2CCCCC2)c1	-11%
CS(=O)(=O)N(CC(=O)Nc1ccc2c(c1)OCCO2)Cc1ccc(Cl)cc1	-9%
Remaining list, next part
SMILES	HPGD block
Cc1cccc(OCCSc2nc3c([nH]2)c(=N)ncn3Cc2ccccc2)c1	-1%
CCCCCCC(=O)Nc1c2c(nc3ccccc13)N(C)CC2	?
CC(OC(=O)CCCc1nc2ccccc2s1)C(N)=O (configuration not stated)	-16%
O=C1C=CC2(OCCCO2)C(Br)=C1CO	?
Cc1cc(-n2nnc3ccccc32)nc2ccccc12	-16%

Screening data from PubChem BioAssay.
